High-throughput results from PubChem.
FGF22 binding – shifts melting point of recombinant human FGF22 | recombinant FGF22 thermal shift, SYPRO orange fluorescence; percent of sucrose octasulfate shift, DMSO zero | Q9HCT0 | calls only at 9.99 µM | 340,000 compounds, 1.5% hits;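 active = melting point raised past a set limit in the mean and every replicate; three in four hits are not shown here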
Target sequence (Q9HCT0 whole entry, looked up): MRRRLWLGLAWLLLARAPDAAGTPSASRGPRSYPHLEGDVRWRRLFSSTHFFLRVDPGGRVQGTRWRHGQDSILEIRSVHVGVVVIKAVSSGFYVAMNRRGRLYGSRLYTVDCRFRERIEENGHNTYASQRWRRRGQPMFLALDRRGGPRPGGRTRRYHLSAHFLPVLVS
Calls only; i = inactive. These rows are one share of the data; the hit share may differ from the screen's.

no.	compound	FGF22 binding
1	CN1C[C@H](O)COC[C@H]2O[C@H](CC(=O)N3CCN(c4ccccc4)CC3)CC[C@@H]21	i
2	CNC(=O)C[C@@H]1CC[C@H]2[C@H](COc3ccc(NC(=O)Nc4cccc(F)c4)cc3C(=O)N2C)O1	i
3	C[C@@H]1CN([C@@H](C)CO)C(=O)c2cc(NS(=O)(=O)c3cccs3)ccc2O[C@H]1CN(C)S(=O)(=O)c1ccc(F)cc1	i
4	COc1ccc(NC(=O)Nc2ccc3c(c2)CC(=O)N([C@@H](C)CO)C[C@@H](C)[C@H](CN(C)C(=O)NC(C)C)O3)cc1	i
5	O=C(C[C@H]1CC[C@@H]2[C@H](COC[C@H](O)CN2S(=O)(=O)c2ccccc2F)O1)NCc1ccccc1Cl	i
6	C[C@H](CO)N1C[C@H](C)[C@H](CN(C)C(=O)CCCN(C)C)OCCCC[C@H](C)Oc2ccc(NC(=O)CCC(F)(F)F)cc2C1=O	i
7	O=C(NCc1ccccc1)[C@@H]1[C@@H](CO)[C@@H]2Cn3c(ccc(-c4cccc(F)c4)c3=O)[C@H]1N2	i
8	O=C(C[C@H]1CC[C@H](NC(=O)Cc2ccccn2)[C@@H](CO)O1)NCCc1ccncc1	i
9	C[C@@H]1CN([C@H](C)CO)C(=O)c2cc(NS(=O)(=O)c3ccccc3)ccc2O[C@H]1CN(C)S(C)(=O)=O	i
10	C[C@H]1CN([C@@H](C)CO)S(=O)(=O)c2ccc(C3=CCCCC3)cc2O[C@H]1CN(C)C(=O)C1CCC1	i
11	C[C@H](CO)N1C[C@H](C)[C@@H](CN(C)Cc2ccc(C(=O)O)cc2)OCCCC[C@H](C)Oc2ccc(NS(=O)(=O)c3cn(C)cn3)cc2C1=O	i
12	O=C(NCc1ccc(F)cc1)[C@H]1[C@H](CO)[C@H]2Cn3c(cccc3=O)[C@@H]1N2C(=O)c1cnccn1	i
13	N#C[C@H]1[C@H](c2ccc(C#Cc3ccccc3F)cc2)[C@H](CO)N1C(=O)C1CCC1	i
14	CC(C)CC#Cc1ccc2c(c1)O[C@H](CN(C)C(=O)Cc1ccccc1)[C@H](C)CN([C@@H](C)CO)S2(=O)=O	i
15	Cc1noc(C)c1NC(=O)Nc1ccc2c(c1)CC(=O)N([C@H](C)CO)C[C@@H](C)[C@@H](CN(C)S(=O)(=O)c1c(C)noc1C)O2	i
16	C[C@@H]1CN([C@@H](C)CO)C(=O)c2cc(NC(=O)Nc3ccc4c(c3)OCO4)ccc2O[C@@H]1CN(C)Cc1ccc(C(=O)O)cc1	i
17	C[C@H](CO)N1C[C@H](C)[C@H](CN(C)CC2CC2)Oc2cc(C#Cc3ccccn3)ccc2S1(=O)=O	i
18	CN(C)C(=O)C[C@H]1CC[C@H]2[C@@H](COC[C@H](O)CN2C(=O)C2CCOCC2)O1	i
19	C[C@H](CO)N1C[C@H](C)[C@H](CN(C)Cc2ccc(Cl)c(Cl)c2)Oc2ccc(NC(=O)NC3CCCCC3)cc2C1=O	i
20	C[C@@H](O)C#Cc1cnc2c(c1)C(=O)N([C@@H](C)CO)C[C@H](C)[C@H](CN(C)C(=O)CN(C)C)O2	i
21	COCC(=O)N[C@H]1C=C[C@H](CC(=O)NCc2ccccc2OC)O[C@H]1CO	i
22	COCC#Cc1cnc2c(c1)C(=O)N([C@H](C)CO)C[C@H](C)[C@@H](CN(C)C(=O)C1CCCCC1)O2	i
23	O=C(CCN1CCCCC1)NCC[C@@H]1CC[C@H](NC(=O)C2CCCC2)[C@@H](CO)O1	i
24	CC(=O)N1CCCCN2[C@H](CO)[C@H](c3ccc(Br)cc3)[C@H]2C1	i
25	O=C(Cc1cccnc1)N1CC2(C1)[C@H](c1ccccc1)[C@@H](CO)N2C(=O)C1CCOCC1	i
26	CO[C@H]1CN(C)C(=O)c2cc(NC(=O)C3CCOCC3)ccc2OC[C@H](C)N(Cc2nccs2)C[C@@H]1C	i
27	CN(C)C(=O)C[C@H]1C=C[C@@H](NC(=O)NC2CCCCC2)[C@@H](CO)O1	i
28	COc1ccc(NC(=O)N(C)C[C@H]2Oc3ccc(NC(=O)CCC(F)(F)F)cc3CC(=O)N([C@H](C)CO)C[C@H]2C)cc1	i
29	CCCNC(=O)Nc1ccc2c(c1)C(=O)N(C)C[C@H](OC)[C@H](C)CN(C)[C@H](C)CO2	i
30	C[C@@H]1CN([C@@H](C)CO)C(=O)c2cc(C#CCN(C)C)cnc2O[C@H]1CN(C)C(=O)Cc1ccncc1	i
31	CCCN(C)C[C@@H]1Oc2ncc(-c3cccc(C(=O)N(C)C)c3)cc2C(=O)N([C@@H](C)CO)C[C@@H]1C	i
32	C[C@@H]1CN([C@H](C)CO)C(=O)c2cc(-c3cccc(F)c3)cnc2O[C@H]1CN(C)C(=O)C1CCOCC1	i
33	C[C@H](O)[C@@H]1C(=O)N2CCc3c([nH]c4c(-c5ccc6c(c5)OCO6)cccc34)[C@@H]2C[C@@H]1N(C)C(=O)Nc1ccccc1	i
34	C[C@H]1CCCCO[C@@H](CN(C)C(=O)Nc2ccc(C(F)(F)F)cc2)[C@@H](C)CN([C@@H](C)CO)C(=O)c2cc(NC(=O)C3CCCCC3)ccc2O1	i
35	CCCC(=O)Nc1ccc2c(c1)OC[C@@H](C)N(Cc1cccc(F)c1)C[C@@H](C)[C@@H](OC)CN(C)C2=O	i
36	Cc1noc(C)c1NC(=O)Nc1ccc2c(c1)CC(=O)N([C@@H](C)CO)C[C@H](C)[C@@H](CN(C)S(=O)(=O)c1ccccc1)O2	i
37	C[C@H]1CCCCO[C@@H](CN(C)C(=O)Nc2cccc3ccccc23)[C@@H](C)CN([C@@H](C)CO)C(=O)c2cc(NC(=O)c3ccncc3)ccc2O1	i
38	C[C@@H]1CN([C@H](C)CO)C(=O)c2cccc(NC(=O)Nc3ccc4c(c3)OCO4)c2O[C@@H]1CN(C)S(=O)(=O)c1ccc(F)cc1	i
39	COc1cccc(-c2cnc3c(c2)C(=O)N([C@@H](C)CO)C[C@@H](C)[C@H](CN(C)Cc2cccnc2)O3)c1	i
40	C[C@H]1CN([C@@H](C)CO)C(=O)CCCn2nncc2CO[C@@H]1CN(C)S(=O)(=O)c1ccccc1C#N	i
41	COc1ccc2c3c(n(C)c2c1)[C@H](CO)N(Cc1nccs1)CC31CN(C(=O)CN(C)C)C1	i
42	C[C@@H]1CN([C@@H](C)CO)C(=O)CCCn2cc(nn2)CO[C@@H]1CN(C)C(=O)Nc1ccnc(N2CCOCC2)c1	i
43	O=C(C[C@@H]1C[C@@H]2c3cc(NC(=O)NC4CCCC4)ccc3O[C@@H]2[C@H](CO)O1)NC1CCCCC1	i
44	COc1ccccc1-c1ccc2c(c1)O[C@@H](CN(C)C(=O)c1ccncc1)[C@H](C)CN([C@H](C)CO)S2(=O)=O	i
45	CCNC(=O)C[C@H]1CC[C@H]2[C@@H](COC[C@@H](O)CN2C(=O)Nc2c(C)noc2C)O1	i
46	C[C@H](CO)N1C[C@H](C)[C@H](CN(C)C(=O)CCC(F)(F)F)OCCCC[C@H](C)Oc2ccc(NC(=O)C3CCCCC3)cc2C1=O	i
47	C[C@@H]1CN([C@@H](C)CO)C(=O)Cc2cc(NC(=O)CCCN(C)C)ccc2O[C@@H]1CN(C)S(=O)(=O)c1cccs1	i
48	C[C@@H]1CN([C@H](C)CO)C(=O)Cc2cc(NC(=O)Cn3cnnn3)ccc2O[C@H]1CN(C)C(=O)Nc1ccc2c(c1)OCO2	i
49	CCCNC(=O)N1CC(=O)N2[C@H](CO)[C@@H](c3ccc(C#Cc4cccc(OC)c4)cc3)[C@@H]2C1	i
50	O=C(CCN1CCCCC1)N[C@@H]1CC[C@@H](CCn2cc(-c3cccc(F)c3)nn2)O[C@H]1CO	i
51	CN1C(=O)c2cc(NC(=O)c3ccc(C(F)(F)F)cc3)ccc2OC[C@@H]2O[C@H](CC(=O)O)CC[C@@H]21	i
52	COCC(=O)Nc1ccc2c(c1)C(=O)N(C)[C@@H]1CC[C@H](CC(=O)N3CCc4ccccc4C3)O[C@H]1CO2	i
53	O=C(CN1CCOCC1)N[C@@H]1CC[C@H](CCNC(=O)C2CCCC2)O[C@H]1CO	i
54	O=C(c1cccnc1)N1C[C@H]2[C@@H](c3ccccc31)[C@@H](CO)N2C(=O)Nc1ccccc1Cl	i
55	COC(=O)C[C@@H]1CC[C@@H]2[C@H](COc3ccc(NC(=O)c4ccccc4OC)cc3C(=O)N2C)O1	i
56	CCOC(=O)N1CCN(C(=O)C[C@H]2C[C@@]3(C(=O)OC)C(=C[C@H](C(C)(C)C)O[C@@H]3C)N(CCC3=CCCCC3)C2=O)CC1	i
57	C[C@@H]1CCCCO[C@H](CN(C)Cc2ccncc2)[C@@H](C)CN([C@@H](C)CO)C(=O)c2cc(NS(C)(=O)=O)ccc2O1	i
58	COC(=O)[C@]12C[C@H](CC(=O)N3CCCCC3)C(=O)N(CCC3=CCCCC3)C1=C[C@H](C(C)(C)C)O[C@@H]2C	i
59	Cc1nc(N2[C@@H](C#N)[C@H](c3ccccc3)[C@@H]2CO)sc1C	i
60	CC=Cc1ccc2n(c1=O)C[C@H]1[C@H](CO)[C@@H](C(=O)NCc3ccccc3)N(S(C)(=O)=O)[C@@H]21 (mixture of isomers)	i

Overlap with the part before: 5 compounds, then new ones.
no.	compound	FGF22 binding
56	CCOC(=O)N1CCN(C(=O)C[C@H]2C[C@@]3(C(=O)OC)C(=C[C@H](C(C)(C)C)O[C@@H]3C)N(CCC3=CCCCC3)C2=O)CC1	i
57	C[C@@H]1CCCCO[C@H](CN(C)Cc2ccncc2)[C@@H](C)CN([C@@H](C)CO)C(=O)c2cc(NS(C)(=O)=O)ccc2O1	i
58	COC(=O)[C@]12C[C@H](CC(=O)N3CCCCC3)C(=O)N(CCC3=CCCCC3)C1=C[C@H](C(C)(C)C)O[C@@H]2C	i
59	Cc1nc(N2[C@@H](C#N)[C@H](c3ccccc3)[C@@H]2CO)sc1C	i
60	CC=Cc1ccc2n(c1=O)C[C@H]1[C@H](CO)[C@@H](C(=O)NCc3ccccc3)N(S(C)(=O)=O)[C@@H]21 (mixture of isomers)	i
61	O=C(C[C@@H]1CC[C@@H]2[C@H](COC[C@@H](O)CN2Cc2ccc3c(c2)OCO3)O1)N1CCOCC1	i
62	C[C@@H]1CN([C@@H](C)CO)C(=O)Cc2cc(NC(=O)CCCCCC(=O)Nc3ccccc3N)ccc2O[C@@H]1CN(C)Cc1ccncc1	i
63	Cc1ccc(S(=O)(=O)Nc2ccc3c(c2)C(=O)N([C@H](C)CO)C[C@H](C)[C@H](CN(C)Cc2ccncc2)OCCCC[C@H](C)O3)cc1	i
64	CO[C@@H]1CN(C)C(=O)c2cc(NC(=O)C3CC3)ccc2OC[C@@H](C)N(C(=O)c2ccccc2F)C[C@@H]1C	i
65	C[C@H](CO)N1C[C@H](C)[C@H](CN(C)C(=O)Nc2ccccc2)Oc2ncccc2C1=O	i
66	O=C(N[C@H](C(=O)N1CCC[C@H]1C(=O)NCc1ccccc1)C1CCCCC1)c1ccc(Cl)cc1Cl	i
67	COc1ccc(S(=O)(=O)Nc2ccc3c(c2)[C@H]2C[C@H](CC(=O)N(C)C)O[C@H](CO)[C@H]2O3)cc1	i
68	Cc1noc(C)c1NC(=O)Nc1ccc2c(c1)C(=O)N([C@H](C)CO)C[C@@H](C)[C@H](CN(C)C(=O)Nc1ccc(F)cc1)OCCCC[C@@H](C)O2	i
69	CS(=O)(=O)Nc1ccc2c(c1)[C@H]1C[C@@H](CC(=O)NCc3ccncc3)O[C@@H](CO)[C@H]1O2	i
70	COc1cccc(-c2cnc3c(c2)C(=O)N([C@H](C)CO)C[C@@H](C)[C@@H](CN(C)C(=O)Nc2c(C)noc2C)O3)c1	i
71	CO[C@@H](CN(C)C(=O)c1ccccc1F)[C@@H](C)CN([C@@H](C)CO)S(=O)(=O)c1ccccc1	i
72	COCC(=O)Nc1ccc2c(c1)OC[C@@H](C)N(Cc1ccncc1)C[C@@H](C)[C@H](OC)CN(C)C2=O	i
73	O=C(C[C@@H]1C=C[C@@H](NS(=O)(=O)c2cccc(F)c2)[C@H](CO)O1)N1CCCCC1	i
74	O=C(C[C@H]1CC[C@H](NS(=O)(=O)c2ccccc2)[C@@H](CO)O1)N1CCC(Cc2ccccc2)CC1	i
75	CCCNC(=O)C[C@H]1CC[C@@H]2[C@H](COc3ccc(NC(=O)Nc4ccccc4)cc3C(=O)N2C)O1	i
76	CN(C)C(=O)C[C@@H]1CC[C@H]2[C@@H](COC[C@@H](O)CN2CC2CC2)O1	i
77	O=C(NCc1ccncn1)[C@@H]1[C@@H](CO)[C@@H]2Cn3c(ccc(-c4ccccc4)c3=O)[C@@H]2N1CC1CC1	i
78	COc1ccc(-c2ccc3c(c2)[C@H]2[C@H](CCN2C(=O)Cc2cccnc2)[C@H](CO)N3C)cc1	i
79	C[C@H]1CN([C@@H](C)CO)C(=O)c2cc(NC(=O)Nc3ccc(C(F)(F)F)cc3)ccc2O[C@H]1CN(C)C	i
80	O=C([C@H]1[C@H](CO)[C@H]2Cn3c(ccc(-c4ccc(F)cc4)c3=O)[C@@H]1N2)N1CCCCC1	i
81	COc1ccc(CN(C)C[C@@H]2Oc3ccc(NC(=O)Nc4ccccc4)cc3C(=O)N([C@@H](C)CO)C[C@@H]2C)cc1	i
82	CCC(=O)N1CC2(CCN(C(=O)Nc3c(C)noc3C)CC2)c2c([nH]c3cc(OC)ccc23)[C@@H]1CO	i
83	C[C@@H]1CN([C@H](C)CO)C(=O)c2cc(-c3cccc(F)c3)cnc2O[C@H]1CN(C)C(=O)c1ccccn1	i
84	CO[C@@H]1CN(C)C(=O)c2ccc(NC(=O)c3cccc(F)c3)cc2OC[C@H](C)NC[C@@H]1C	i
85	O=C(Cc1ccccn1)N1CC2(C1)[C@H](c1ccccc1)[C@@H](CO)N2C(=O)c1cccnc1	i
86	C[C@H]1CN([C@@H](C)CO)C(=O)Cc2cc(NC(=O)c3ccncc3)ccc2O[C@H]1CN(C)C	i
87	CN1C(=O)c2cc(NC(=O)Nc3ccccc3F)ccc2OC[C@H]2O[C@@H](CC(=O)O)CC[C@@H]21	i

Three entries already listed, arranged by length of the SMILES, lowest first.
no.	compound	FGF22 binding
85	O=C(Cc1ccccn1)N1CC2(C1)[C@H](c1ccccc1)[C@@H](CO)N2C(=O)c1cccnc1	i
82	CCC(=O)N1CC2(CCN(C(=O)Nc3c(C)noc3C)CC2)c2c([nH]c3cc(OC)ccc23)[C@@H]1CO	i
77	O=C(NCc1ccncn1)[C@@H]1[C@@H](CO)[C@@H]2Cn3c(ccc(-c4ccccc4)c3=O)[C@@H]2N1CC1CC1	i
